Source: PubChem BioAssay (ICCB-Longwood Screening Facility, Harvard Medical School)
GIV-Gai inh: inhibitors of GIV GBA-motif binding to rat Galpha-i3; P08753; Galpha-i3/FITC-GIV peptide fluorescence polarization, 90 min; active compounds read low; scaled: aluminum fluoride 0%, vehicle 100%; percent of control (FP), % (no concentration beside the values); hit rate 0.42% among 210,000;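 active = replicate mean at 85% of control or lower, very high polarization wells dropped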;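 also: wells of about 15 µL received 100 nL stock; the first replicate is given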
Target sequence (P08753 whole entry, looked up): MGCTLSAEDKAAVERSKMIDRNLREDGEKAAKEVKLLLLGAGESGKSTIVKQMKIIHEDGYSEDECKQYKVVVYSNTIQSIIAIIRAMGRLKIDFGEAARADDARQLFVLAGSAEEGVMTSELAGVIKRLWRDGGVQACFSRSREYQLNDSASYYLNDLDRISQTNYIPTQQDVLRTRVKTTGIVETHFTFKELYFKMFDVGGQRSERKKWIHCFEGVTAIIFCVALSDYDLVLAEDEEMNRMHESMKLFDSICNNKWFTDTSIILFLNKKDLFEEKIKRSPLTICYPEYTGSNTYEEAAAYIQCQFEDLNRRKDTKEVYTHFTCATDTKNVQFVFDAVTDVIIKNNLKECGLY
Numbers without * were called inactive; & = joins results of further samples. An excerpt (hit frequency here may not be typical).

SMILES	GIV-Gai inh
O=C(Cn1cnc2c(-c3ccccc3)csc2c1=O)NC1CCCC1	104
Cn1nc(-c2nc(C3CC3)no2)c2c1CCN(S(=O)(=O)c1cccc(Cl)c1)C2	106
Cc1nc(CN2C(=O)COc3cc(S(=O)(=O)N4CCc5ccccc5C4)c(C)cc32)no1	108
Cc1ccc(S(=O)(=O)Nc2cc3c4c(n(S(=O)(=O)c5ccc(C)cc5)c3c3ccccc23)CCCC4)cc1	106
O=C(Cn1nc2c(N3CCSCC3)nccn2c1=O)NCCC1=CCCCC1	106
Cc1[nH]nc(-c2c(C)sc(C)c2S(=O)(=O)N2CCc3ccccc3C2)c1C	100
O=C(NC1CCCC1)c1ccc(-c2cccc(F)c2)nc1	107
Cc1cccc(NC(=O)CCc2nc(CSc3nc(-c4ccccc4)cs3)no2)c1C	108
Cc1nc(SCC(=O)c2ccc(O)cc2O)n[nH]1	101
CCN1CCCc2cc(C(=O)NC3CC3)sc21	95
CCOC(=O)C1=c2s/c(=C\c3ccc(Cl)cc3)c(=O)n2C(N)=C(C(=O)OC)C1c1ccc(Cl)cc1 (stereo not given)	108
O=C(NC1CCN(c2nnc3ccccn23)CC1)c1cc2c(s1)CCCC2	109
CC1Cc2ccccc2N1C(=O)c1ccc(=O)n(CC(=O)NCC2CCCO2)n1 (stereo not given)	101
COc1cc(C2/C(=C(\O)c3ccc(C)cc3)C(=O)C(=O)N2c2nncs2)ccc1O (stereo not given)	118
CC(C)OC(=O)CSc1nc2cc(-c3ccccc3)sc2c(=O)n1C	104
COC(=O)c1ccccc1NC(=O)CSc1nc2cc(-c3ccccc3)sc2c(=O)n1C	101
Cc1c(C(=O)N(C)CCc2ccccn2)sc2ncnc(N3CCN(c4ccccc4)CC3)c12	100
CCOc1cc(-c2ccccc2)nc2ccc(NS(=O)(=O)c3ccc(NC(C)=O)cc3)cc12	102
Cc1c(C(=O)N2CCN(c3ccc([N+](=O)[O-])cc3)CC2)sc2ncnc(N3CCC(C)CC3)c12	123
Cc1nnc(NC(=O)CSc2nc(=O)[nH]c3c2CCC3)s1	106

3 compounds already listed, sorted by their value in GIV-Gai inh, largest number first.
| structure | GIV-Gai inh |
| --- | --- |
| Cc1cccc(NC(=O)CCc2nc(CSc3nc(-c4ccccc4)cs3)no2)c1C | 108 |
| O=C(Cn1nc2c(N3CCSCC3)nccn2c1=O)NCCC1=CCCCC1 | 106 |
| CCN1CCCc2cc(C(=O)NC3CC3)sc21 | 95 |

An excerpt of these results, in CSV form.
Molecule,GIV-Gai inh
Cc1ccc(S(=O)(=O)Nc2cc3c4c(n(S(=O)(=O)c5ccc(C)cc5)c3c3ccccc23)CCCC4)cc1,106
O=C(Cn1nc2c(N3CCSCC3)nccn2c1=O)NCCC1=CCCCC1,106
Cc1[nH]nc(-c2c(C)sc(C)c2S(=O)(=O)N2CCc3ccccc3C2)c1C,100
O=C(NC1CCCC1)c1ccc(-c2cccc(F)c2)nc1,107

The results go on:
SMILES	GIV-Gai inh
CCS(=O)(=O)N1CCCN(C(=O)c2ccoc2)CC1	99
CC(=O)NC1=NN(C(C)=O)C2(S1)C(=O)N(C(C)=O)c1ccccc12 (stereo not given)	101
CC(=O)N1c2cc(C)c(C)cc2-c2c(ssc2=S)C1(C)C	116
O=C1NC(=S)N(c2cccc(Br)c2)C(=O)/C1=C/c1cc(Cl)ccc1O	98
Cc1nn(-c2ccc(F)cc2)c2c1c(=O)c(C(=O)NC(C)C)cn2C	105
CC(C)c1ccc(O)c(NC(=O)COc2ccc(Cl)cc2-n2cnnc2)c1	102
CN(C)c1nc2c(=O)[nH]c(N)nc2n1[C@@H]1O[C@H](CO)[C@H](O)C1O (stereo not given in full)	112
Clc1ccc(C2Nc3cccc4cccc(c34)N2)c(Cl)c1	111
Cc1nc(-c2cc(S(=O)(=O)Nc3ccc(F)cc3F)c(C)s2)sc1C	99
Cc1cc(C2CCCN2C(=O)c2cnn3c(C(F)(F)F)cc(-c4ccccc4)nc23)on1 (stereo not given)	103
COc1ccc(C2N(c3ccccc3)CCN2c2ccccc2)cc1[N+](=O)[O-]	104
CC(C)CN1C(=O)N(c2cccc(Cl)c2)C(n2oc(=O)n(-c3cccc(Cl)c3)c2=O)C1(C)C (stereo not given)	102
CN1C2C=C(N(CCc3ccccc3)C(=O)c3ccc(F)cc3)CC1CC2 (stereo not given)	115
Nc1c(C(=O)Nc2ccc(S(N)(=O)=O)cc2)sc2nc3c(cc12)CCC3	103
O=C(c1ccc2c(c1)OCO2)N1CCN(c2ncnc3c2nnn3Cc2ccccc2)CC1	100
CCOC(=O)c1ccc(N2N=C(C)/C(=C/c3cccn3-c3ccc(S(N)(=O)=O)cc3)C2=O)cc1	99
O=C(N/C(=C\c1cccc([N+](=O)[O-])c1)C(=O)N(CCO)CCO)c1ccco1	104
O=C(CCc1nc(CS(=O)(=O)c2ccccc2)no1)NCCC1=CCCCC1	108
O=C(NCC1CC1)C1CCN(c2cnc(N3CCCC3)nc2)CC1	105
Cc1ccccc1C(=O)N/C(=C\c1coc2ccc(Cl)cc2c1=O)C(=O)N1CC2CC(C1)c1cccc(=O)n1C2 (stereo not given)	106
COc1ccc(OC)c(S(=O)(=O)Nc2ccc3nnc(-c4cccc(Br)c4)n3n2)c1	100
CCOC(=O)c1cnc2c(C)cc(C)cc2c1Nc1ccc(C)cc1	104
CCOc1ccc(N2C(=O)C(N3C(=O)c4ccccc4C3=O)C2c2cccc(OC)c2)cc1 (stereo not given)	127
CC(C)Oc1cccc(NC(=O)C2CCCN(S(=O)(=O)Cc3ccc(Cl)cc3)C2)c1 (stereo not given)	101
CCOC(=O)c1ccccc1NC(=O)Cn1cc(-c2nc(-c3ccc(C)cc3)no2)ccc1=O	101
O=C(CSc1nc2ccccc2c(=O)n1NC(=O)Cc1ccccc1)NCCc1ccccc1	106
CC(C)CC(C)N1CCN(c2ccc(NC(=O)c3ccc(Br)cc3)cc2C(=O)O)CC1 (stereo not given)	107
CCOC(=O)C1=NNC2C(=O)N(c3ccccc3C)C(=O)C12 (stereo not given)	105
O=C(NCCC1CCN(C(=O)NC2CCCCC2)CC1)c1ccc(Cl)nc1	111
O=P(Cc1cccc(CP(=O)(c2ccccc2)c2ccccc2)n1)(c1ccccc1)c1ccccc1	110
O=c1ccc(-c2ccc3c(c2)OCO3)nn1CCc1nc(-c2ccc(Br)cc2)no1	102
Oc1ccc(Cl)cc1C1=Nc2ccccc2N=C(c2ccc(F)cc2)C1	98
Cc1nc(-c2cc(S(=O)(=O)N3CCOCC3)c(C)n2C)sc1C(=O)N1CCCC1	103
O=C(Nc1cc(F)cc(F)c1)NC1CCN(c2ccc(F)cc2)C1=O (stereo not given)	95
CC(=O)Nc1ccc2nc(SCC(=O)Nc3c(C)cc(C)cc3C)sc2c1	107
CN(C)N1C(N)=C(C#N)C(c2ccc(Br)cc2)C2=C1CC(c1ccccc1)CC2=O (stereo not given)	105
CC1(C)CC(=O)C2=C(C1)NC1=C(C(=O)CC(C)(C)C1)C2c1ccc(OCc2ccccc2Cl)cc1	112
COc1cc2c(c([N+](=O)[O-])c1)NC(c1ccc(Br)cc1)C1CC=CC21 (stereo not given)	108
COc1ccc2oc(=O)c(-c3nc(-c4ccc(Cl)cc4Cl)cs3)cc2c1	115
NN1C=NN2C(SCC(=O)Nc3nnc(SCC(=O)Nc4ccc(Cl)c(Cl)c4)s3)=NNC12 (stereo not given)	108
O=C(Nc1ccc(F)c(Cl)c1)c1ccc(C2Nc3ccccc3S(=O)(=O)N2)cc1 (stereo not given)	99
CC(C)NC(=O)Cn1c(=O)n(C(C)C)c(=O)c2nscc21	102
COc1ccc(OC)c(-n2c3nc(=O)[nH]c(=O)c-3cc3ccccc32)c1	103
Cc1ccc(Sc2nc3ccccc3n3nnnc23)cc1	98
O=C(Nc1ccc(F)c(F)c1)C1Oc2ccccc2NC1=O (stereo not given)	100
Cc1cc(C2CCCN2S(=O)(=O)c2ccc(Br)cc2)on1 (stereo not given)	98
Cc1ccc2c(c1)N(C(=O)C(Cc1ccccc1)N1C(=O)c3ccccc3C1=O)C(C)(C)c1ssc(=S)c1-2 (stereo not given)	113
Cn1nc(-c2nc(C3CC3)no2)c2c1CCN(S(=O)(=O)c1cccc(F)c1)C2	103
S=c1[nH]nc(-c2ccco2)n1-c1ccc(Br)cc1	106&112
CC1(C)c2ccccc2N(c2ccccc2)C12C=Cc1cc(Br)ccc1O2 (stereo not given)	109
COc1cc(-c2nc(C=Nc3ccc(C)cc3Br)c(O)o2)cc(OC)c1OC	110
N#CC1=C(N)N(c2ccc(Br)cn2)C2=C(C(=O)CCC2)C1c1ccc2c(c1)OCO2 (stereo not given)	175
Cc1ccccc1Nc1nc2nonc2nc1Nc1cccc(C)c1C	106
COCCn1c(CNC(=O)c2ccc(F)cc2)nc2cccnc21	111
Cc1nn(-c2ccccc2)c(N2CCC(C(=O)NC3CC3)CC2)c1NC(=O)C(C)C	102
Cc1cccc([C@@H]2[C@@H](C(=O)C(C)(C)C)N3c4ccccc4C=C[C@@H]3C2(C#N)C#N)c1	104
Cc1cccc(NC(=O)CSC2=C(C#N)C(c3cccs3)C3=C(CCCC3=O)N2)c1 (stereo not given)	111
Clc1cccc(-c2nc(-c3ccc(Br)cc3)c(-c3ccc(Br)cc3)[nH]2)c1	106
COC(=O)c1nc2n(n1)C(c1ccc(Cl)cc1)C=C(c1ccc(Cl)cc1)N2 (stereo not given)	99
C#CCOc1ccc(C2CC(=O)Nc3c2cnn3-c2ccc3nnc(C)n3n2)cc1OC (stereo not given)	100

Of the compounds above, these contain a furan ring, fused or not:
SMILES	GIV-Gai inh
CCS(=O)(=O)N1CCCN(C(=O)c2ccoc2)CC1	99
O=C(N/C(=C\c1cccc([N+](=O)[O-])c1)C(=O)N(CCO)CCO)c1ccco1	104
S=c1[nH]nc(-c2ccco2)n1-c1ccc(Br)cc1	106&112

Other structures:
SMILES	GIV-Gai inh
COc1ccc(NC(=O)Cn2cnc3c(sc4ncccc43)c2=O)cc1OC	104
COc1ccc2ccccc2c1-c1nnc2ccc3ccccc3n12	108
CN(C)c1cc(OC2CCN(C(=O)c3ccoc3)C2)ncn1 (stereo not given)	107
COc1cccc(N/C(SCc2ccccc2Cl)=C(/C#N)C(N)=O)c1	106
Cn1nc(-c2nc(C3CC3)no2)c2c1CCN(S(=O)(=O)c1cccs1)C2	105
Cc1cc(C)c(S(=O)(=O)Nc2cnc(N3CCNCC3)c(C(=O)N(C)C)c2)cc1C	102
Cc1nn(-c2ccc(-c3ccccc3)nn2)c(C)c1S(=O)(=O)NCCC(C)C	102
Cc1cccc(-c2cncc(C(=O)NCCc3ccc(Cl)cc3)c2)c1	98
CCn1c(CN(C)S(=O)(=O)c2ccc(C(C)(C)C)cc2)nc2cc(C(=O)N(C)C)ccc21	108
O=C(Cc1ccccc1[N+](=O)[O-])N1CCCc2ccccc21	105
CCCCC(C(=O)OCC(C)C)N1C(=O)C2C3c4ccccc4C(c4ccccc43)C2C1=O (stereo not given)	108
COC(=O)c1c(NC(=O)c2sc3ccccc3c2Cl)sc2c1CCN(C(C)C)C2	150
COCCCNC(=O)c1ccc(-c2cc(N3CCCC3)ncn2)cc1	104
Cc1nc2c(c3c1[nH]c1ccccc13)C(=O)CCC2	106
CCOC(=O)CC(=O)CSc1nc2sc(C(=O)OCC)c(C)c2c(=O)n1CCc1ccccc1	111
CCCCOc1ccc(S(=O)(=O)N2CCN(c3nc(C)cc(N4CCOCC4)n3)CC2)cc1	99
CCOc1ccc(OCC)c(NC(=O)C2CCCN(S(=O)(=O)c3cccc4cccnc34)C2)c1 (stereo not given)	100
COC(=O)c1cc(NC(=O)CSc2nc3[nH]ncc3c(=O)n2-c2ccccc2C)cc(C(=O)OC)c1	113
O=C(Cc1ccccc1)Nc1ccccc1-c1ccc2ccccc2n1	102
COc1ccc(NS(=O)(=O)c2cc(/C=C\c3onc(C)c3NC(C)=O)ccc2C)cc1	103
CCCS(=O)(=O)N1CCCN(C2=NS(=O)(=O)C(c3cccc(Cl)c3)=C2C)CC1	103
Cc1noc(C)c1S(=O)(=O)N1CCC(CC(=O)N2CCN(S(C)(=O)=O)CC2)CC1	108
Cc1ccc(CNC(=O)C2(C)CCCN(S(=O)(=O)c3cc(C)c(C)cc3C)C2)cc1 (stereo not given)	110
Brc1ccc(-n2cc(-c3ccccc3)c3c(NCc4ccccn4)ncnc32)cc1	117
CC(=O)N1CCCc2cc(S(=O)(=O)N3CCC(C(=O)N4CCN(C)CC4)CC3)ccc21	98
CC1(C)c2ccccc2N2CCC(=O)NC21/C=C/c1cccnc1 (stereo not given)	98
Cc1ncc2c(n1)CCN(S(=O)(=O)c1cc(Cl)ccc1Cl)C2	99
Cc1c(NC(=O)CCN2C(=O)c3ccccc3C2=O)c(=O)n(-c2ccccc2)n1C	101
CC1(C(=O)NCc2ccccc2)CCCN(S(=O)(=O)c2ccc(F)c(Cl)c2)C1 (stereo not given)	108
CCN(CC)C(=O)c1cc2c(n(-c3ccccc3)c1=O)CCCC2=O	109
O=c1[nH]c(CN2CCCC3(CCCCC3)C2)nc2c1C1(CCCCC1)Cc1ccccc1-2	109
Cc1ccccc1NC(=O)c1c(NC(=O)c2ccccc2Cl)sc2c1CCCCC2	103
COC(=O)Nc1ccc(S(=O)(=O)N2CCCC(C(=O)N3CC(C)OC(C)C3)C2)cc1 (stereo not given)	111
CCOC(=O)C1=C(N)Oc2cc(O)ccc2C1c1ccc(Br)cc1 (stereo not given)	112
COc1ccc(CCNC(=O)CCn2c(SCC(=O)n3nc(N)cc3C)nc3ccccc3c2=O)cc1OC	106
Cc1ccc(-c2noc(Cc3nc(-c4ccc(Cl)cc4)cs3)n2)cc1	125
CCn1c2ccccc2c2cc(NC(=O)c3nc4ccccc4nc3N3CCN(C)CC3)ccc21	103

4 records drawn at random from those above, as already listed:
SMILES	GIV-Gai inh
Cc1noc(C)c1S(=O)(=O)N1CCC(CC(=O)N2CCN(S(C)(=O)=O)CC2)CC1	108
Cc1c(NC(=O)CCN2C(=O)c3ccccc3C2=O)c(=O)n(-c2ccccc2)n1C	101
Cc1ccccc1NC(=O)c1c(NC(=O)c2ccccc2Cl)sc2c1CCCCC2	103
Cc1ccc(CNC(=O)C2(C)CCCN(S(=O)(=O)c3cc(C)c(C)cc3C)C2)cc1 (stereo not given)	110
